PMP22 txn: modulators of PMP22 gene transcription in S16 Schwann cells; S16 Pmp22-F2sN Schwann cells (luciferase reporters placed in the Pmp22 gene), FLuc/NLuc coincidence luminescence, 24 h; Potency, µM (top dose mostly 57.5 µM), inactives show top-dose activity change, negative = inhibition, actives largely listed as inhibitors; AID 1508649; 2% of 43,000 active; active = clear falling dose curves in both reporters; inconclusive = both reporters move, but less clearly or upward; inactive = either reporter flat; the % is the NLuc reporter signal; also: % is scaled to controls: 0 for no effect and ±100 for the full control effect; some results filed as inactive show a strong effect at the top dose
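S16(c9) Schwann cells with FLuc/NLuc coincidence reporter in the Pmp22 3' UTR; compounds pin-transferred, 24 h at 37C. Dual-luciferase read: FLuc first, then NLuc after Stop&Glo, each 10 min at room temperature.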
HTT prom inh: inhibitors of huntingtin promoter activity; Potency, µM (top dose mostly 57.5 µM), inactives show top-dose activity change, negative = inhibition, hits mostly inhibitors; HEK293 HTT promoter firefly luciferase reporter (activity 0% = vehicle and -100% = no light), 24 h; 0.93% of 48,000 active; active = well fitted inhibition curve with a large enough effect; inconclusive = small, poorly fitted or top-dose-only effect; inactive = no such curve, though single readings can be large or run the other way; also: nearly all actives have a fitted effect of over 50% in size
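Luminescence was read after Dual-Glo reagent and a 10 min room-temperature incubation. Values were normalized to vehicle (0% activity) and zero RLU (-100% activity). Reporter HEK293 cells had been exposed to compounds (up to 57.5 uM final) for 24 h.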
* = called active by the depositor; ? = inconclusive; nt = not tested or not shown; & = joins results of further samples; [ ] = another dose, or the depositor's remark. Potency is read from the fitted curve at half-maximal effect. An unsorted share of the library (roughly 2.4% active in at least one column).

molecule	PMP22 txn	HTT prom inh
CCOC(=O)C1CCN(C(=O)Cn2ncc3c([nH]c4ccc(C)cc43)c2=O)CC1	16%	3%
Cc1ccc2c(CC(=O)Nc3c(C(=O)Nc4cccc(Cl)c4)oc4ccccc34)coc2c1C	-12%	-4%
CN(CCCN1c2ccccc2CCc2ccccc21)CC(=O)c1ccc(Cl)cc1	nt	0%
O=C(COc1ccc(Cl)cc1)Nc1cc(-c2ccccc2)no1	19%	-2%
CC1CCN(S(=O)(=O)c2ccc(N3CCCCS3(=O)=O)cc2)CC1	3%	-43%
Cc1ccc(CCNC(=O)C(C)n2nc(C)c3c(C)n(-c4ccc(C)cc4)nc3c2=O)cc1 (stereo not drawn)	?	?
CC1=C(C(N)=O)C(c2cccc(C)c2)n2nc(-c3cccc(C)c3)nc2N1 (stereo not drawn)	8%	-17%
CCOc1ccc(NS(=O)(=O)c2ccc3[nH]cc(C(=O)NCCOC)c(=O)c3c2)cc1	1%	19%
CCc1cccc(NC(=O)Cn2c(=O)ccc3cc(S(=O)(=O)N4CCC(C)CC4)ccc32)c1	-11%	?
O=C(CN1C(=O)CSc2ccc(S(=O)(=O)N3CCCCC3)cc21)NCc1ccc(F)cc1Cl	?	-29%
COc1ccc(C(=O)c2c(N)c(-c3nc(-c4ccc5c(c4)OCO5)cs3)c3ccccn23)cc1	0%	0%
Cc1ccccc1-c1nnc(CN2CCN(c3ccccn3)CC2)o1	1%	-27%
Cc1ccc(C)c(NC(=O)Cn2c(=O)n(-c3ccccc3C)c(=O)c3c2c2cc(C)ccc2n3C)c1	-3%	-16%
CCN1CCN(c2cc(C)c3cc(NC(=O)c4cc(Cl)ccc4OC)ccc3n2)CC1	?	-2%
COc1ccc(CNC(=O)Cn2nnc(-c3ccc(S(C)(=O)=O)cc3)n2)cc1	17%	-7%
O=C(Nc1ccc(F)c(Cl)c1)N1CC=C(c2c[nH]c3ccccc23)CC1	?	?
COc1cc(OC)c(NC(=O)Cc2c(C(=O)O)c(C)cn2C)cc1Cl	7%	-19%
CC(C)(C)C(=O)Cn1c(=O)n(-c2ccc(Cl)c(Cl)c2)c(=O)c2c3c(sc21)CCCC3	?	-8%
Cc1ccc(CCNC(=O)CCCn2nc(C)c3c(C)n(-c4ccccc4)nc3c2=O)cc1	-5%	12%
Cc1cccc(C)c1NC(=O)CSCc1cnn(-c2ccccc2)c1-n1cccc1	-3%	?
COC(=O)c1cc(NC(=O)CCc2c(C)nc3nc(C)nn3c2C)cc(C(=O)OC)c1	-1%	-5%
COc1cc(-c2nnc(SCC(=O)N3CCCc4ccccc43)o2)cc(OC)c1OC	0%	-9%
CCOC(=O)N1CCc2c(sc3c2c(=O)n(CCc2ccccc2)c(=O)n3Cc2c(F)cccc2Cl)C1	-2%	-6%
Cc1cccc(N2CCN(C(=O)Cn3ncc4c5ccccc5n(C)c4c3=O)CC2C)c1 (stereo not drawn)	1%	5%
Cc1[nH]c2ccccc2c1C(=O)C(=O)NC1CC(=O)N(c2cccc(F)c2)C1 (stereo not drawn)	-1%	4%
CCC(C(=O)Nc1ccc(C(=O)OC)cc1)n1nc(-c2ccc(C)c(C)c2)ccc1=O (stereo not drawn)	?	?
Cc1noc(-c2ccc(-c3noc(-c4ccc([N+](=O)[O-])c(C)c4)n3)cc2)n1	-15%	-7%[11.5 µM]
COc1ccc2oc(=O)c(-c3nc(-c4cc(OC)c(OC)c(OC)c4)no3)cc2c1	-19%	5%
Cc1ccccc1C(=O)Nc1nnc(S(=O)(=O)N2CCCc3ccccc32)s1	7%	-20%
O=S(=O)(NCC(c1ccco1)N1CCN(c2ccccc2)CC1)c1ccccc1 (stereo not drawn)	-7%	-13%
COc1ccccc1CN1CCN(C2CCN(C(=O)NC(C)C)CC2)C(=O)C1=O	-4%	17%
COc1ccc(C)cc1NC(=O)C(CCSC)NS(=O)(=O)c1ccc2c(c1)oc(=O)n2C (stereo not drawn)	-3%	-33%
Cc1ccc2c(C)c(C(=O)N(Cc3ccc(Cl)cc3)C3CCS(=O)(=O)C3)oc2c1 (stereo not drawn)	?	?
CCOc1ccc(CNC(=O)Cn2cc3c(n2)-c2c(oc(C(=O)N4CCCC4)c2C)CC3)cc1	-51%	?
O=C(CCn1cnnn1)Nc1cc(C(F)(F)F)cc(C(F)(F)F)c1	3.9µM*	-27%
Fc1ccc([C@@H]2CCNC[C@H]2COc2ccc3c(c2)OCO3)cc1	nt	-1%&3%
Cc1ccccc1N(C)C(=O)c1noc2c1COc1ccccc1-2	-52%	39%[activator]
Cc1ccccc1NC(=O)CSC1=Nc2ccccc2C2=NC(CCC(=O)NCc3ccccc3)C(=O)N12 (stereo not drawn)	-11%	-17%
COc1ccc(CNC(=O)c2ccc(CNS(=O)(=O)c3ccc(OC)cc3)cc2)cc1	-40%	-6%
COc1cc(/C=C/c2nc3cc(Cl)ccc3c(=O)n2-c2cccc(C(F)(F)F)c2)cc(OC)c1OC	-10%	?

By substructure: those above with a thiophene ring, fused or not (two)
molecule	PMP22 txn	HTT prom inh
CC(C)(C)C(=O)Cn1c(=O)n(-c2ccc(Cl)c(Cl)c2)c(=O)c2c3c(sc21)CCCC3	?	-8%
CCOC(=O)N1CCc2c(sc3c2c(=O)n(CCc2ccccc2)c(=O)n3Cc2c(F)cccc2Cl)C1	-2%	-6%

Further results follow.
molecule	PMP22 txn	HTT prom inh
CCOC(=O)c1c(C)n(-c2ccccc2)c2ccc(OC(=O)c3ccc(OCC)c(OCC)c3)cc12	-25%	-20%
CCCCC(CC)CNC(=O)c1ccc(Cn2c(=O)[nH]c3cc(OC)c(OC)cc3c2=O)cc1 (stereo not drawn)	?	-1%
Cc1nnc(N2CCC(C(=O)NCc3ccc(F)cc3)CC2)c2nn(-c3ccc(Cl)cc3)c(C)c12	?	?
Cc1nc(N2CCOCC2)c2c(C(=O)NCc3cccc(Cl)c3)c(C)oc2n1	19%	9%
COc1ccccc1CNC(=O)C1(c2cccs2)CCOCC1	-32%	-2%
O=C(COc1ccccc1)Nc1sc2c(c1C(=O)Nc1ccccc1)CCCCC2	-7%	2%
CCOc1ccc(NC(=O)CSc2ccc3ccccc3n2)cc1	-4%	19%
CCCCNC(=O)C1CCN(S(=O)(=O)c2cc(Br)cc3c2N(C(=O)CC)CC3)CC1	-19%	-7%
Cc1ccc2sc(N(CCCN(C)C)C(=O)c3ccco3)nc2c1C	?	-20%
CCCn1c(=O)sc2cc(NC(=O)c3ccccc3OCC)ccc21	-37%	-6%
CCOC(=O)C1CCN(C(=O)c2ccc3c(=O)n4nc(Nc5cc(C)ccc5C)sc4nc3c2)CC1	-6%	?
CCOC(=O)c1ccc(N2C(=O)c3n[nH]c(-c4ccco4)c3C2c2cccc(OC)c2)cc1 (stereo not drawn)	?	?
CCc1ccc(-n2c(=O)c3c4c(sc3n(Cc3ccc(C)cc3)c2=O)CCC4)cc1	-11%	-11%
CC(C)c1nn2c(=O)cc(COC(=O)c3ccco3)nc2s1	?	0%
Fc1ccc(-n2ncc3c(Nc4ccc(Oc5ccc(Cl)cc5)cc4)ncnc32)cc1	?	-9%
CC(=O)c1cccc(NC(=O)Cn2c(=O)oc3cc(S(=O)(=O)NC4CCCC4)ccc32)c1	-38%	-30%
CCn1c(=O)cc(OCC(=O)N2CCN(c3ccccc3OC)CC2)c2ccccc21	17µM*	-2%
COc1ccccc1NC(=O)Cn1c(=O)n(Cc2ccccc2)c(=O)c2sc3ccccc3c21	-27%	-10%
N#Cc1cc(NC(=O)C(=O)O)c(Cl)c(NC(=O)C(=O)O)c1	nt	3%
O=C(NCCc1csc(-c2ccc(F)cc2)n1)c1cccs1	?	?
Cc1cc(C)cc(NC(=O)c2cc(CN3CCCC3)on2)c1	0%	66%[activator]
Cc1ccc(CNC(=O)CSc2n[nH]c(-c3ccc(F)cc3)n2)cc1	0%	-28%
CN(Cc1ccccc1)C(=O)Cn1ncc2c3ccccc3n(Cc3cccc(Cl)c3)c2c1=O	7%	-27%
CC1=C(C(=O)OC2CCCC2)C(c2c(Cl)cccc2Cl)CC(=O)N1 (stereo not drawn)	?	?
COc1ccc(OC)c(CNC(=O)C2CCN(c3ncnc4c3nc3n4CCCCC3)CC2)c1	6%	-4%
CCc1ccccc1NC(=O)CCNS(=O)(=O)c1ccc2c(c1)CCN2C(=O)C1CC1	-10%	0%
O=C(CN1CCCN(S(=O)(=O)c2ccc(Br)cc2)CC1)Nc1cccc(C(F)(F)F)c1	?	?
COc1ccc(NC(=O)Nc2nnc(N3CCCCCC3)s2)c(OC)c1	16%	-27%
O=c1nc2n(-c3ccccc3F)c3ccccc3cc-2c(=O)[nH]1	-31%	-18%
O=C(NCCC1=CCCCC1)c1ccc2c(c1)N(Cc1cccc(Cl)c1)C(=O)c1ccccc1S2=O (stereo not drawn)	-19%	-23%
Cc1noc(/C=C/c2ccccc2F)c1S(=O)(=O)N1CCC(C(=O)N(C)Cc2ccco2)CC1	-1%	-27%
Cc1cc(C(=O)Nc2cccc(F)c2)c2c(C)nn(-c3cccc(Cl)c3C)c2n1	?	?
CC1=C(c2ccc(C)cc2)S(=O)(=O)NC1=NCCCN1CCN(c2ccccc2F)CC1	?	?
CCCCc1ccc(NC(=O)C2(C)Cc3ccccc3C(=O)O2)cc1 (stereo not drawn)	-26%	-21%
Cc1ccc(CNC(=O)c2c(-c3ccccc3F)noc2C)o1	15%	-16%
COc1ccccc1CCNC(=O)c1ccc2c(c1)c(C)c(C)n2Cc1ccc(Cl)cc1	?	-30%
O=C(NCCn1cc(SCc2ccccc2F)c2ccccc21)c1cccs1	?	?
CCCN(c1ccc(C(C)C)cc1)S(=O)(=O)c1ccc2c(c1)CCN2C(=O)CC	-37%	-32%
Cc1cc(C)nc(NS(=O)(=O)c2ccc(NC(=O)COc3ccc(Cl)cc3C)cc2)n1	-20%	-15%
CCOC(=O)c1ccc(NC(=O)c2ccc(-c3cccc(Cl)c3C)o2)cc1	-15%	-7%
COc1ccc(N2CCN(S(=O)(=O)c3c(C)[nH]c(=O)[nH]c3=O)CC2)cc1	12%	0%
Cc1ccn2c(=O)c(NC(=O)c3cccc([N+](=O)[O-])c3C)c(C)nc2c1	?	-27%
CC(C)(C)c1ccc(C(=O)N(Cc2ccc(F)cc2)Cc2ccco2)cc1	-10%	-26%
Cc1ccc(Cl)cc1NC(=O)NCc1cccn1Cc1ccc(F)cc1	?	-17%
CCCCC12CN3CC(C)(CN(C1)C3c1c(C)[nH]c(=O)[nH]c1=O)C2=O (stereo not drawn)	?	-13%
COc1ccc(-n2c(SCC(=O)c3ccccc3)nc3c([nH]c4ccccc43)c2=O)cc1	-7%	-7%
COc1ccc(CN(CCC(c2ccc3c(c2)OCO3)c2ccccc2OC)C(C)=O)cc1 (stereo not drawn)	?	-16%
COc1ccc(OC)c(Nc2nc3ccccc3n3c(C)nnc23)c1	-6%	1%
COc1ccc(N(C(=O)COc2ccccc2OC)S(=O)(=O)c2ccc(Cl)cc2)cc1	?	?
Cc1ccc(Cn2cc(CCC(=O)NC3CCCCC3)c3ccccc32)cc1	-14%	?

Further records follow:
molecule	PMP22 txn	HTT prom inh
CC(C)C[C@H](NC(=O)CNC(=O)[C@H](Cc1ccc(O)cc1)NC(=O)[C@H](CO)NC(=O)[C@H](Cc1c[nH]c2ccccc12)NC(=O)[C@H](Cc1cnc[nH]1)NC(=O)[C@@H]1CCC(=O)N1)C(=O)N[C@@H](CCCN=C(N)N)C(=O)N1CCC[C@H]1C(=O)NCC(N)=O (stereo in doubt)	nt	11%
COc1ccc(N2CC3=C(C2=O)C(c2ccc(Br)cc2)NC(=O)N3C)cc1 (stereo not drawn)	-2%	?
CCOC(=O)c1ccc(N2C(=O)c3n[nH]c(C)c3C2c2ccc(C(C)(C)C)cc2)cc1 (stereo not drawn)	?	3%
O=C(Nc1cccc(Cl)c1Cl)c1cc(S(=O)(=O)NCc2ccc3c(c2)OCO3)ccc1F	?	-9%
Cc1ccc2c(c1)sc1nc(=O)n(-c3ccc(Cl)c(Cl)c3)c(=O)n12	-12%	-9%

Compound profiles, as listed above:
`Cc1ccccc1-c1nnc(CN2CCN(c3ccccn3)CC2)o1` is entered as PMP22 txn: 1%; HTT prom inh: -27%
`COc1ccc(CNC(=O)Cn2nnc(-c3ccc(S(C)(=O)=O)cc3)n2)cc1` is entered as PMP22 txn: 17%; HTT prom inh: -7%
